Assay outcomes from PubChem BioAssay.
T cruzi repl: inhibitors of intracellular T. cruzi growth, primary screen, luminescence, NIH3T3 host cells; AID 1885, 2009; 300,000 tested, 1.4% active; T. cruzi beta-gal in NIH3T3, 90 h; inhibition, % (test concentration not listed);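 active = mean inhibition across valid replicates above about 55%, limit read from the data; inconclusive = mean below that limit but half or more replicates reach it; inactive = mean below it, under half of replicates reach it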;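 note: signal also drops with host cell toxicity which is not excluded here; 0% = plate median of DMSO wells and 100% = zero luminescence signal; higher percent means less beta-gal luminescence so fewer parasites; stock transfer was 50 nL into about 50 µL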
Bfl-1 A1 inh: caspase 3/7 activation in MEF A1-2A-BIM cells, primary screen, A1 inhibitor project, cell-based, luminescence, HTS; Caspase-Glo 3/7 luminescence, 3 h; percent of clofoctol response, vehicle zero; 330,000 tested, 0.066% active; caspase activation, % (no concentration beside the values);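 active = over half of replicate activation scores above 10%, or exactly half above 10 with the replicate mean above 10; inconclusive = replicate mean below 10 yet half the replicates above 10; inactive = over half of replicates below 10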;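 note: wells of about 30 µL received 50 nL stock; many hits fall short of the cut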
Calb FLC: C. albicans growth inhibition with fluconazole, primary screen, CaCi-2 strain, Alamar Blue fluorescence. 300,000 tested, 0.57% active. C. albicans CaCi-2 (fluconazole-resistant clinical isolate) + fluconazole, 48 h. growth inhibition, % (concentration not given with the values);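 active = most replicates above 75%; inconclusive = exactly half above 75%; inactive = most below 75%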;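 note: all wells also contain fluconazole at 8 µg/ml as a sub-toxic cotreatment; 0% = median of DMSO wells and 100% = median of geldanamycin control wells; wells of about 8 µL received 7.5 nL stock; the first replicate is given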
LANA-H2B inh: blockers of LANA interaction with H2A/H2B – biochemical, FP readout, HTS, primary screen | 320,000 tested, 0.6% active | Protein LANA1 (Human herpesvirus 8 type P (isolate GK18)), Q9QR71 | cell-free LANA-H2A/H2B peptide, fluorescence polarization | inhibition, % (concentration not given with the values); in the data active = inhibition mostly above about 10%, no sharp cut-off; inactive = mostly below about 6.7%;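 note: stock transfer was 7.5 nL into about 10 µL; 0% = median of vehicle wells and 100% = median of positive control wells; one replicate is shown; the record names a cut of 25% in any replicate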
ALR inh: inhibitors of human ALR sulfhydryl oxidase, primary screen, biochemical, H2O2 detection, HRP-luminol luminescence, single point; FAD-linked sulfhydryl oxidase ALR (Homo sapiens), P55789; purified ALR, DTT oxidation; inhibition, % (no concentration beside the values); 290,000 tested, 3.8% active;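 active = mean and each replicate at 75% or more; inconclusive = only one of the two met; inactive = neither met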;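 note: stock transfer was 7.5 nL into about 7.5 µL; 0% = neutral wells and 100% = wells with inactivated enzyme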
Target sequence (P55789 whole entry, looked up): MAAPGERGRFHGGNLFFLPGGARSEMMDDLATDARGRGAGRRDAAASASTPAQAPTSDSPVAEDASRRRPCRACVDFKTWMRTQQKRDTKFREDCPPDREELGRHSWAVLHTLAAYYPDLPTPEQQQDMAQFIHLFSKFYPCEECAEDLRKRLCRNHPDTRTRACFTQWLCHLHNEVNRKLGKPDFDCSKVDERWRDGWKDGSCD
rRNA inh HTS: reduced GFP signal of wild-type E. coli, primary screen, bacterial rRNA inhibitor project, GFP/RFP fluorescence, OD600, single point. 350,000 tested, 1.6% active. E. coli WT GFP vs humanized-ribosome RFP mutants, 24 h; hits give low values; DMSO median 0, no signal -100. GFP signal change (wild-type ribosome), % (no concentration beside the values);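 active = significant combined selectivity score with lowered wild-type GFP, culture density cut under 30%, mutant RFP and density less affected; inactive = any of these conditions unmet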; note: one replicate is shown; some compounds called inactive have numbers as strong as hits
Beta cell apopt: inhibitors of cytokine-induced beta cell apoptosis, primary screen, luminescence; INS-1E cytokine-induced death, ATP luminescence, 48 h; percent of positive-control rescue, neutral wells zero; protection from apoptosis, % (no concentration beside the values); 300,000 tested, 0.8% active;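 active = all replicates at 75% or more, or half of them and the mean; inconclusive = half reach 75% but not the mean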;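 note: 0% = cytokine-treated negative control wells and 100% = positive control rescue; higher means more ATP so stronger rescue from cytokine killing; wells of about 40 µL received 100 nL stock; the first replicate is given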
B2AR ag: beta2AR agonists driving receptor internalization, primary screen, cell-based, FAP fluorogen, flow cytometry | response, % (concentration not given with the values) | 340,000 tested, 0.43% active | Am2.2-beta2AR cells; reference of the scale not given here | Beta-2 adrenergic receptor (Homo sapiens), P07550;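 active = response above a set limit, near 3 SD of response in nonfluorescent compounds, cut at about 42% in these data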;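 note: stock transfer was 100 nL into about 11 µL; a reference agonist was the positive control; negative values mostly stem from fluorescent compounds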
Target sequence (P07550 whole entry, looked up): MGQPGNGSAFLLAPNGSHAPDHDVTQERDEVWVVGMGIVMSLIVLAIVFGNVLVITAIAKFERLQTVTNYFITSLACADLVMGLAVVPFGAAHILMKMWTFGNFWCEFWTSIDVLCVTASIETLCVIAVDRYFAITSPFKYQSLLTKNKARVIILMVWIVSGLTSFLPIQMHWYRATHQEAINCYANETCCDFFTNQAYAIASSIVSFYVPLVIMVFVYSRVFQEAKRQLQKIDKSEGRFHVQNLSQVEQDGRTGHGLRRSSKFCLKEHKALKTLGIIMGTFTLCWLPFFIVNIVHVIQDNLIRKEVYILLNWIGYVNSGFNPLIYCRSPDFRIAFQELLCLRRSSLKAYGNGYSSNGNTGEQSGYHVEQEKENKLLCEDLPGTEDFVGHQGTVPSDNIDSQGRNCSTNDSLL
rRNA inh HTS OD600: recorded beside rRNA inh HTS, whose call it bears; OD600 change, %; measured here: OD600 growth;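 optical density of the mix in the first replicate; 0 = DMSO median and -100 = no signal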
rRNA inh HTS RFP: second read-out of rRNA inh HTS, no call of its own (marks repeat the call); RFP signal change, %; measured here: RFP humanized mutant strains;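 first replicate; 0 = DMSO median and -100 = no signal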
* hit, by the source's call; ? = inconclusive; nt = not tested or not shown. The list is partial; count on the stated rates, not on these rows.

SMILES	T cruzi repl	Bfl-1 A1 inh	Calb FLC	LANA-H2B inh	ALR inh	rRNA inh HTS	rRNA inh HTS OD600	rRNA inh HTS RFP	Beta cell apopt	B2AR ag
Cc1ccc(NC(=O)/C=C/c2ccc3c(c2)OCO3)nc1	-9	-3.7	-2	-0.5	-1	23	22	0.1	-5	-2
Cc1occc1C(=O)N/N=C/c1c[nH]c2ccccc12	-7	-7.4	-1	-11	29	-13	2	-2.5	1	6
CCc1ccc(OCC(O)CNC(C)(C)C)cc1 (stereo unspecified)	-13	0.4	-1	3.5	-4	10	-3	3.8	-3	14
CC(C)(C)c1ccc(C(=O)N2CCCC2)s1	-15	-2.8	10	0.5	-8	-2	0	0.5	-7	-8
COc1ccc(/C=C/C(=O)c2cc(Br)ccc2OC(=O)c2ccco2)cc1OC	-6	-0.4	?	1.0	-6	5	10	0.3	1	3
CN(C)c1ccc(NC(=O)CCN2C(=O)c3cccc([N+](=O)[O-])c3C2=O)cc1	-13	-0.8	0	-4.2	100*	9	0	0.7	nt	-2
Cc1ccnc(NC(=O)CCNS(=O)(=O)c2ccc(C)c(C)c2)c1	7	0.2	-6	3.2	-6	-11	-5	-0.1	3	1
CCC(C)NC(=O)CSC1=Nc2ccccc2C2=NC(CCC(=O)NCc3ccco3)C(=O)N12 (stereo unspecified)	-7	-0.4	-4	4.1	nt	nt	nt	nt	-4	-8
O=C(CSc1nnc(-c2ccc(S(=O)(=O)N3CCCC3)cc2)o1)NCC1CCCO1 (stereo unspecified)	8	0.1	-6	-2.3	3	6	12	0.6	-10	0
O=C1[C@@H]2CSCN2C(=O)CN1CCc1cccc(F)c1	-27	1.0	-10	-2.3	-13	nt	nt	nt	-9	3
O=C(CSc1nnc(-c2ccncc2)o1)c1cccc([N+](=O)[O-])c1	-10	0.0	-20	-0.6	17	15	17	-0.7	nt	-3
CC(C)(C)c1ccc(/C=C/C(=O)Nc2cccnc2)cc1	-16	-7.8	8	1.3	44	-40	-52	-0.1	-1	8
CC(C)(C)CC(=O)Nc1ccc(-c2nnc3n2CCCCC3)cc1	-3	0.7	7	-1.8	0	5	16	1.0	-12	6
CNc1oc(/C=C/c2cccc(OC)c2)nc1C#N	-3	-3.5	12	4.6	12	nt	nt	nt	0	9
Cc1cc(C)cc(OCc2ccc(C(=O)N3N=C(C(F)F)CC3(O)C(F)F)o2)c1 (stereo unspecified)	7	?	55	14	-24	nt	nt	nt	9	10
Cc1ccc2nc(SCC(=O)Nc3c(F)cccc3F)[nH]c2c1	-12	0.5	5	-3.3	-11	-22*	-4.5*	1.7*	-4	-3
CCOC(=O)c1c(C)[nH]c(C)c1C(=O)CSc1nc2ccccc2c(=O)n1-c1ccc(Cl)cc1	38	-1.0	8	1.5	-2	-4	-5	-9.7	0	6
Fc1ccc(-c2nnn(Cc3ccc(F)cc3Cl)n2)cc1	-4	1.4	-1	-2.1	0	-3	1	-13	-20	3
c1ccc2nc(-c3ccncc3)ccc2c1	15	-12	-19	-4.3	5	nt	nt	nt	-11	2
CCCCc1ccc(NC(=O)C2CCCO2)cc1 (stereo unspecified)	3	0.1	-14	-0.8	-1	nt	nt	nt	-1	-7
O=C(Nc1cccc(Cl)c1)c1cc2c(=O)n3ccccc3nc2s1	-3	-1.9	1	-1.9	-9	13	29	0.9	-6	-14
S=C1NCN(C2CCCCC2)CN1Cc1ccccc1	-37	0.5	-9	-3.5	-11	2	14	15	-6	13
COc1ccccc1NC(=O)C1(C)Cc2ccccc2C(=O)O1 (stereo unspecified)	-13	0.7	3	5.1	-6	4	-28	-7.6	-3	-1
Cc1ccc(SCC(=O)Nc2ccc(F)cc2[N+](=O)[O-])cc1C	3	1.1	-6	3.2	96*	12	9	-5.5	4	-2
COc1ccc(NC(=O)Cn2nnc(C(=O)NCc3ccc(C)cc3)c2N)cc1Cl	-2	-0.4	-2	0.2	-1	1	2	-4.1	nt	4
O=C(Cn1ccc2ccccc2c1=O)NCCC(=O)N1CCCCC1	-11	0.3	-8	1.3	-33	3	7	-2.8	-4	1
CC1(C)N=C(N)N=C(N)N1c1ccc(Oc2ccc(Cl)cc2)c(Cl)c1	55*	1.7	26	2.3	-4	-58	-81	-16	2	-3
CCCCC(=O)NC(c1ccccc1OC)c1ccc2cccnc2c1O (stereo unspecified)	57*	0.2	96*	6.9	-11	1	10	7.3	96*	5
Cc1ccnc(N2CCC(C(=O)Nc3ccc4c(c3)CCC4)CC2)n1	-5	1.0	-4	5.7	-4	nt	nt	nt	5	15
CN1C(=O)C(=O)N(CC(=O)N2CCc3ccccc32)C1=O	-10	0.8	6	0.4	10	nt	nt	nt	-6	-9
Cc1ccc(OCC(=O)N(Cc2ccccc2)C(C)C)c([N+](=O)[O-])n1	-9	-1.5	12	0.9	nt	nt	nt	nt	-3	-12
CSc1nnc([C@@H]2CCCN2C(=O)OC(C)(C)C)o1	-2	0.2	-6	-6.2	-22	6	7	-4.6	0	-5
COc1cc2[nH]c(=O)n(CCCC(=O)NC3CCCCC3)c(=O)c2cc1OC	-8	0.0	-7	1.5	-3	nt	nt	nt	-1	-2
COc1ccc(CCNC(=S)NC(=O)c2ccc(Br)cc2)cc1OC	30	0.4	-10	2.1	-2	-9	2	-2.2	1	-3
O=C(NC(=S)N1CCN(c2ccccc2)CC1)c1c(F)cccc1F	-27	0.0	-5	-1.1	99*	-5	-7	-0.1	-2	-5
CC1=C/C(=N\NC(=O)c2ccc(O)cc2)CC1	-4	0.0	-19	1.2	-4	-3	1	-0.4	-1	11
O=C(NC(=S)Nc1ccc2oc(=O)ccc2c1)c1cccc(Cl)c1	-6	1.0	-5	-6.2	-8	3	14	-3.3	-1	-2
CC1(c2ccc(Cl)cc2)NC(=O)N(CC(=O)N2CCc3ccccc3C2)C1=O (stereo unspecified)	nt	0.0	nt	-3.3	-9	-2	6	1.7	1	-2
COc1ccc(CC(=O)O/N=C(\N)Cc2ccc([N+](=O)[O-])cc2)cc1	6	-0.3	5	0.4	0	13	9	4.2	nt	-4
O=C(N/N=C/c1c(Cl)cccc1Cl)c1n[nH]c2c1CCCC2	22	-5.6	-10	-1.2	-1	11	14	1.2	7	0
Cc1cc(C)nc(NC(=O)CSc2ccccn2)n1	3	-0.8	-5	-3.5	nt	nt	nt	nt	-4	5
COCc1cc(C2C(C(=O)c3ccco3)=C(O)C(=O)N2CCOCCO)ccc1O (stereo unspecified)	-5	-0.5	-8	4.3	18	30	17	1.8	-13	6
CN1C(=O)C(O)(CC(=O)/C=C/C=C/c2ccccc2)c2ccccc21 (stereo unspecified)	-4	0.3	-3	-9.7	90*	nt	nt	nt	-5	8
CCOc1ccc(NC2c3ccccc3C(=O)N2Cc2ccco2)cc1 (stereo unspecified)	6	-0.4	-9	-3.4	98*	3	1	2.1	9	9
O=C(CSc1ncc(-c2ccccc2)n1-c1ccccc1)NCc1ccco1	22	0.9	2	-2.7	-2	-8	-11	1.6	-2	-1
CCCCN(C(=O)c1ccc(Br)o1)C1CCS(=O)(=O)C1 (stereo unspecified)	-5	0.5	20	1.9	5	0	-1	2.0	-5	-4
CCCNC(=O)c1oc2ccc3c(c2c1C)C=CC(C)(C)O3	7	0.6	-2	-3.1	-3	-32	-53	-11	11	3
CNC(=S)NCC(O)c1ccc([N+](=O)[O-])cc1 (stereo unspecified)	-11	-0.9	11	-0.5	-8	10	17	2.2	-2	1
CCn1c2nc(SCCN3CCOCC3)nnc2c2cc(C)cc(C)c21	17	0.1	16	-2.1	11	-12	-19	-0.4	3	3
O=C(O)c1ccc(-c2cccc([N+](=O)[O-])c2)o1	9	-0.5	-7	-1.4	nt	1	-11	-2.5	11	0
Cc1c(NC(=O)OCc2ccccc2)c(=O)n(-c2ccccc2)n1C	-7	1.3	-5	-6.2	-3	5	3	-1.5	-11	-6
Fc1ccc(OCCCCCn2ccnc2)cc1	55*	-0.7	3	-5.6	0	-2	3	-6.0	-2	-6

Filtered by structure, those above containing an aryl thioether with sulfur outside any ring
SMILES	T cruzi repl	Bfl-1 A1 inh	Calb FLC	LANA-H2B inh	ALR inh	rRNA inh HTS	rRNA inh HTS OD600	rRNA inh HTS RFP	Beta cell apopt	B2AR ag
O=C(CSc1nnc(-c2ccc(S(=O)(=O)N3CCCC3)cc2)o1)NCC1CCCO1 (stereo unspecified)	8	0.1	-6	-2.3	3	6	12	0.6	-10	0
O=C(CSc1nnc(-c2ccncc2)o1)c1cccc([N+](=O)[O-])c1	-10	0.0	-20	-0.6	17	15	17	-0.7	nt	-3
Cc1ccc2nc(SCC(=O)Nc3c(F)cccc3F)[nH]c2c1	-12	0.5	5	-3.3	-11	-22*	-4.5*	1.7*	-4	-3
CCOC(=O)c1c(C)[nH]c(C)c1C(=O)CSc1nc2ccccc2c(=O)n1-c1ccc(Cl)cc1	38	-1.0	8	1.5	-2	-4	-5	-9.7	0	6
Cc1ccc(SCC(=O)Nc2ccc(F)cc2[N+](=O)[O-])cc1C	3	1.1	-6	3.2	96*	12	9	-5.5	4	-2
CSc1nnc([C@@H]2CCCN2C(=O)OC(C)(C)C)o1	-2	0.2	-6	-6.2	-22	6	7	-4.6	0	-5
Cc1cc(C)nc(NC(=O)CSc2ccccn2)n1	3	-0.8	-5	-3.5	nt	nt	nt	nt	-4	5
O=C(CSc1ncc(-c2ccccc2)n1-c1ccccc1)NCc1ccco1	22	0.9	2	-2.7	-2	-8	-11	1.6	-2	-1
CCn1c2nc(SCCN3CCOCC3)nnc2c2cc(C)cc(C)c21	17	0.1	16	-2.1	11	-12	-19	-0.4	3	3
